# LANA-nucl inh: inhibitors of KSHV LANA-nucleosome binding, primary screen, biochemical, fluorescence polarization, FITC-LANA1-23, chicken nucleosomes. FITC-LANA1-23 / chicken nucleosome fluorescence polarization; hits give low values. z-score (concentration not given with the values). actives 0.3% (n = 51,000). AID 720717, 2013;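 active = both repeat wells score below -2 in polarization z-score versus plate sample wells, excluding overly bright wells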;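 also: 100 nL library stock added to about 30 µL; numbers are from one replicate; some results filed as inactive read as strong as hits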
#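 System – purified chicken nucleosomes with FITC-labelled LANA N-terminal peptide (1-23) · Amount – 240 nM purified chicken nucleosomes (480 nM peptide binding sites), final · Also added – 50 nM FITC-LANA1-23 probe · Medium – TEN-BT buffer, pH 7.5 · Incubation – compound with peptide–nucleosome mix 10–45 min at room temperature · Detection – fluorescence polarization, ex 480 nm, em 535 nm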
# Ab BasE inh: BasE siderophore enzyme inhibitors, primary screen, biochemical, Acinetobacter baumannii ATCC 17978, fluorescence polarization; purified BasE, fluorescence polarization binding displacement; inhibition, % (no concentration beside the values); actives 0.1% (n = 84,000); AID 485350, 2010;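 active = both replicates above 25% with normal brightness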;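 also: 0% = negative plate control signal and 100% = positive plate control signal; stock transfer was 100 nL into about 30 µL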
# Active calls of the source: *; . = no result given. The list is partial; count on the stated rates, not on these rows.
Compound | LANA-nucl inh | Ab BasE inh
CCn1nc(C(=O)NC23CC4CC(CC(C4)C2)C3)c2ccccc2c1=O | . | 0.9
NC(=O)C1CCCCN1C(=O)CCCc1c[nH]c2ccccc12 (stereo not given) | . | 1.6
O=C(NCCC1CCCCC1)N1CCN(c2ccccc2)CC1 | -0.248 | 1.3
C=C(C)c1cccc(C(C)(C)NC(=O)N2CC(C)OC(C)C2)c1 (stereo not given) | . | 1.3
O=C1Cc2ccccc2N1c1c(Cl)cccc1Cl | . | -0.1
Cc1ccc(CS(=O)Cc2ccc(C(=O)NCCc3ccccc3)o2)cc1 (stereo not given) | -0.154 | -1.4
CCCc1nc2sc3c(N4CCCC4)ncnc3c2c2c1CCCC2 | . | 1.9
COc1ccc(CN(C)C(=O)CN(C)S(=O)(=O)c2ccc3c(c2)OCCO3)cc1 | . | 1.6
Cc1cccc(N2C(N)=C(C#N)C(c3cc(C)ccc3C)C3=C2CCCC3=O)c1 (stereo not given) | 2.49 | 1.2
CCOC(=O)Cn1nnnc1CN(Cc1cc2c(C)ccc(C)c2[nH]c1=O)C1CCCCC1 | 0.079 | 0.3
c1ccc(CN2CCCN(c3nc4c(c(NCCN5CCOCC5)n3)CCCC4)CC2)cc1 | 0.067 | -5.0
O=C(NCCc1ccccn1)C(F)(F)C1(F)OC(F)(F)C(F)(F)C1(F)F (stereo not given) | -0.547 | 1.6
Cc1ccc(NC(=O)NC(=O)c2c(-c3snnc3C)noc2C)cc1 | 0.528 | 0.2
Cc1oc(-c2ccc(C(=O)NCCN3CCOCC3)cc2)nc1CSc1ccccc1 | -1.34 | -30.1
O=C(CCC1CCCCC1)Nc1ncn[nH]1 | 0.063 | 1.1
O=C(Cc1ncc(C(F)(F)F)cc1Cl)NC1CCCC1 | 0.325 | .
CCOc1ccc(N2C(=O)CC3(CC(C(=O)OCc4ccccc4)=NN3)C2=O)cc1 (stereo not given) | 0.244 | 2.3
CCOC(=O)c1c(-c2ccccc2)nc2ccccn12 | -0.756 | .
CC(C)n1c(O)c(N=NC(=O)c2cccc(S(=O)(=O)N3CCCC3)c2)c2ccccc21 | . | 1.2
CN1CCN(c2ccc(NC(=O)COc3ccc(Br)cc3)cc2)CC1 | -0.464 | -0.2
O=C(COc1ccc(/C=N/NS(=O)(=O)c2ccccc2)cc1)N1CCOCC1 | 2.08 | -1.5
O=C(NCCCN1CCN(Cc2ccccc2)CC1)c1cn2cc(C(F)(F)F)cc(Cl)c2n1 | . | 1.6
Cc1ccc(S)cc1C | . | 2.4
COc1ccccc1C(OC(=O)c1cccs1)C(=O)NCc1ccco1 (stereo not given) | 0.692 | -0.8
O=c1[nH][nH]c2nnc(-c3ccccc3)c(-c3ccccc3)c12 | 0.389 | 3.9
COc1ccc2oc(=O)c(C(=O)NCCO)cc2c1 | -0.251 | 1.5
CCOC(=O)C/C(C)=N/c1ncn(-c2ccc(OC)cc2)c1C(=O)c1ccccc1 | . | 4.7
C(=Nc1ccc2ccccc2c1)c1ccncc1 | . | 0.9
Cn1[nH]c(CSc2ccccc2)cc1=O | -0.589 | .
CCCCSC1=C(C#N)C(=O)NCS1 | -1.47 | 3.3
O=C(Cc1ccccc1)N1CCN(c2ccc(N3CCCCC3)nn2)CC1 | -0.0695 | -0.2
CC(C)(C)NC(=O)c1cccc2c1C(=O)N(C1CCCCC1)C2 | -0.692 | 0.9
CCNC(=O)N1C2CCC(C2)C1C(=O)OCC (stereo not given) | . | 1.3
CCOC(=O)c1ccc2nc(NC(=O)CSc3nc(C)cc(=O)[nH]3)sc2c1 | 0.479 | -1.3
CC(=O)Nc1ccc(S(=O)(=O)NCC2CC3CCC2C3)cc1 (stereo not given) | -0.455 | -3.4
O=C(Cn1ncc2c([nH]c3ccccc32)c1=O)NC1CCCC1 | 0.765 | -0.1
Brc1ccc(OCCSc2nnc(NC3CC3)s2)cc1 | . | 1.8
N#CC(=C(/N)Sc1ccccc1N)/C(C#N)=C(\N)Sc1ccccc1N | 0.0845 | 0.9
Cc1cc(NS(=O)(=O)c2ccc(NC(=S)NC(=O)c3ccccc3)cc2)no1 | 0.554 | 9.5
O=C1CN(C(=O)COC(=O)Cn2cnc3ccccc3c2=O)c2ccccc2N1 | . | 0.5
CCOC(=O)c1cnn2c1nc(N1CC(C)CC(C)C1)c1ccccc12 (stereo not given) | . | 1.0
Cc1ccc2oc(-c3cccc(N)c3)nc2c1 | -1.53 | -6.0
COc1ccc(NC(=O)c2cc3cc(OC)ccc3oc2=N)cc1 | . | -1.6
Cc1nnc2ccc(-c3ccc(NS(=O)(=O)c4ccc5c(c4)OCCO5)cc3)nn12 | -0.292 | 0.6
COc1ccc(C=C2C(=O)OC(C)(C(C)(C)C)OC2=O)cc1 (stereo not given) | . | 4.1
CC(=O)N1CCN(C(=O)C2(NC(=O)Nc3ccc(C)cc3)CCCCC2)CC1 | -0.51 | -0.6
CN1C(=O)N(Cc2ncc(-c3ccccc3)o2)C(=O)C1(C)C | . | -0.9
C=CCC(C)(NCCc1ccccc1)c1ccco1 (stereo not given) | 0.55 | -0.9
O=C(CSc1nc2scc(-c3cccs3)c2c(=O)[nH]1)c1ccc[nH]1 | . | -5.0
CSc1nc(Nc2cccc(C(F)(F)F)c2)cc(C(F)(F)F)c1C#N | . | 0.5
Cc1ccc(-n2nnnc2SCC(=O)NN2C(=O)NC3(CCCCC3)C2=O)cc1 | . | 4.3
O=C(NCCC1=CCCCC1)c1ccc2c(c1)OCCO2 | 3.42 | -2.2
Cc1ccc(NC(=O)CN(C)Cn2nc(-c3ccco3)oc2=S)cc1 | . | 4.6
COCCn1c(SCC(=O)c2ccc(CNC(C)=O)cc2)nc2ccccc21 | . | 1.0
CC(C)c1cc(C(C)C)c(S(=O)(=O)N2CCN(CCO)CC2)c(C(C)C)c1 | 0.351 | 1.9
CC/C(=N\NS(C)(=O)=O)c1ccccc1 | -1.74 | -1.5
Cc1cccc(CC(=O)n2nc(C)cc2C)c1 | -0.212 | -0.1
O=C1c2ccccc2CC1Sc1nnc(-c2ccccn2)c(-c2ccccn2)n1 (stereo not given) | 0.103 | -2.2
CC1(C)CC2CC(C)(CN2C(=O)COC(=O)c2cncc(Br)c2)C1 (stereo not given) | . | -0.1
CC(CN1CCCC1)C(=O)NN (stereo not given) | . | -2.6

# 3 compounds from above, ordered by the number in LANA-nucl inh, falling:
SMILES | LANA-nucl inh
O=C(NCCC1=CCCCC1)c1ccc2c(c1)OCCO2 | 3.42
CC(C)c1cc(C(C)C)c(S(=O)(=O)N2CCN(CCO)CC2)c(C(C)C)c1 | 0.351
CC/C(=N\NS(C)(=O)=O)c1ccccc1 | -1.74

# The list continues:
Compound | LANA-nucl inh | Ab BasE inh
O=C(CCc1nc2ccccc2c(=O)[nH]1)Nc1nccs1 | . | 2.3
COc1ccccc1NS(=O)(=O)c1ccc2oc(SCC(=O)N3CC(C)OC(C)C3)nc2c1 (stereo not given) | . | 0.4
CCN1CCN(c2cc3c(cc2F)c(=O)c(S(=O)(=O)c2ccc(OC)cc2)cn3C)CC1 | -0.203 | -14.4
OCc1cn(CC(O)Cn2cnc3ccccc32)c2ccccc12 (stereo not given) | 0.603 | .
C=C(C)Cc1c(C)nc(-c2ccc(Cl)cc2)nc1OC(=S)N(CC)CC | . | 1.7
COC(=O)COc1ccccc1C(=O)OC | 0.657 | 1.4
Brc1nc(Br)n(Cc2ccccc2)n1 | 0.344 | .
Clc1ccc(-c2nc(C=Nc3ccccc3)c3ccccn23)cc1 | . | -0.9
O=C(Nc1ccccc1)C1CCCCN1S(=O)(=O)c1ccccc1 (stereo not given) | . | 2.9
CS/C(=N/S(=O)(=O)c1ccccc1)N1CCN(c2c(C#N)cccc2C#N)CC1 | 1.41 | -2.7
COc1nc(Nc2ccc(C)cc2)nc(N2CCC(C)CC2)n1 | 0.481 | -3.8
Cc1ccc2c(CNCc3ccccc3)c(C(=O)O)[nH]c2c1 | 0.228 | 1.9
CC(C)CC(=O)N1CCN(Cc2ccccc2)CC1 | 1.36 | -6.2
CN(Cc1ccccc1)S(=O)(=O)c1ccc(NC(=O)c2ccco2)cc1 | -0.064 | 0.7
O=C(C1COc2ccccc2O1)N(Cc1ccc2c(c1)OCO2)C1CCCC1 (stereo not given) | . | 0.3
Cc1nn(-c2ccccc2)c2sc(C(=O)NN=C3CCCC3)cc12 | 2 | -1.2
CCN1C(=O)CS/C1=N\S(=O)(=O)c1ccccc1 | . | -0.1
CCCCSC1=C(C#N)C(=O)NC(C(C)C)S1 (stereo not given) | -0.95 | 2.6
CCCN(Cc1nnc(-c2ccco2)o1)C(=O)C1CCN(c2ncc(C(F)(F)F)cc2Cl)CC1 | . | -0.5
CC1CCCCN1C(=O)c1cc2ccccc2cc1O (stereo not given) | -0.546 | 0.3
Nc1ccc2c(c1)C(=O)N(CC1CCCO1)C2=O (stereo not given) | -1.27 | 2.3
Cc1nnc(-c2ccccn2)[nH]c1=O | -0.77 | 0.7
CC(C)CC(=O)N[C@H](C(=O)NC(C(=O)NC(CC(C)C)[C@@H](O)CC(=O)N[C@@H](C)C(=O)N[C@@H](CC(C)C)[C@@H](O)CC(=O)O)C(C)C)C(C)C (stereo not given in full) | -0.36 | .
CCCOC(=O)c1cc(-c2ccc(/C=C3\C(=O)N(CCO)C(=O)C(C#N)=C3C)o2)ccc1Cl | . | 0.3
Cc1noc(C)c1CSc1nc2sc(C)c(C)c2c(=O)n1C1CCCC1 | . | 3.9
O=C(O)CSc1nnnn1C1CCCCC1 | -0.002 | -1.1
O=S(=O)(/C=C/c1ccccc1)N1CCN(C(=S)NCC2CCCO2)CC1 (stereo not given) | . | 1.1
CC(C)(C)NC(=O)[C@H]1CCC2C3CCC4NC(=O)C=C[C@]4(C)C3CC[C@@]21C (stereo not given in full) | -0.935 | .
CCN(CC)C(=S)SCc1nc(N)nc(Nc2ccccc2OC)n1 | -0.378 | 1.5
COc1ccc(Nc2nnc(SCC#N)s2)cc1 | . | -2.6
O=C(NCc1ccc2c(c1)OCO2)C1CCC(=O)N1CCc1ccccc1 (stereo not given) | 3.3 | -2.2
CCOc1ccc2c(c1)NC(c1ccc(C)o1)=NC(c1cccs1)=N2 | 0.0815 | -0.2
CCCC(=O)N1c2ccccc2C(Nc2ccccc2)CC1C (stereo not given) | -0.557 | 1.0
CC(Oc1ccc(-c2nnco2)cc1)C(=O)Nc1cccc2ccccc12 (stereo not given) | . | -0.8
Cc1ccccc1CC(=O)Nc1ccc(S(N)(=O)=O)cc1 | -0.762 | 1.4
CSc1cccc(NC(=O)CCS(=O)(=O)c2cccc3nonc23)c1 | -0.179 | 2.2
CN1CCC(N(C)C(=O)c2ccc(S(=O)(=O)NCc3ccco3)cc2)CC1 | . | 0.6
O=C(NCc1nc2ccccc2s1)c1cc(F)cc2c1OCOC2 | . | -1.1
O=C(CN1C(=O)CCc2ccccc21)NCCN1CCN(c2ccccc2F)CC1 | 0.153 | 3.2
CC1CC(C)(C)OC(C2CC=CCC2)O1 (stereo not given) | -0.136 | 6.1
O=C(NCC1CCCO1)c1cc2sccc2n1Cc1ccc(F)cc1 (stereo not given) | -0.821 | 2.5
CN(c1ccccc1)S(=O)(=O)c1ccc2c3c(cccc13)C(=O)N2 | 0.402 | 2.8
COc1ccc(-c2nnc(SCC(=O)NCc3ccc(OC)c(OC)c3)n2N)cc1 | . | -0.5
O=C1OC(CC(=O)N2CCN(Cc3ccc4c(c3)OCO4)CC2)c2ccccc21 (stereo not given) | . | -0.8
CCC(C)NC(=O)c1ccc2ccccc2c1 (stereo not given) | -0.885 | -1.0
O=C(COC(=O)Cn1cnc2ccccc21)Nc1ccccc1 | . | 6.1
CC(CCc1ccccc1)NC(=O)CN1CCN(Cc2ccccc2)C1=O (stereo not given) | 0.538 | -0.7
CSc1cccc(NC(=O)CCS(=O)(=O)c2ccc3c(c2)CCN3C(=O)C2CC2)c1 | -0.936 | -1.9

# By substructure, the compounds so far with fluorine.
Compound | LANA-nucl inh | Ab BasE inh
O=C(NCCc1ccccn1)C(F)(F)C1(F)OC(F)(F)C(F)(F)C1(F)F (stereo not given) | -0.547 | 1.6
O=C(Cc1ncc(C(F)(F)F)cc1Cl)NC1CCCC1 | 0.325 | .
O=C(NCCCN1CCN(Cc2ccccc2)CC1)c1cn2cc(C(F)(F)F)cc(Cl)c2n1 | . | 1.6
CSc1nc(Nc2cccc(C(F)(F)F)c2)cc(C(F)(F)F)c1C#N | . | 0.5
CCN1CCN(c2cc3c(cc2F)c(=O)c(S(=O)(=O)c2ccc(OC)cc2)cn3C)CC1 | -0.203 | -14.4
CCCN(Cc1nnc(-c2ccco2)o1)C(=O)C1CCN(c2ncc(C(F)(F)F)cc2Cl)CC1 | . | -0.5
O=C(NCc1nc2ccccc2s1)c1cc(F)cc2c1OCOC2 | . | -1.1
O=C(CN1C(=O)CCc2ccccc21)NCCN1CCN(c2ccccc2F)CC1 | 0.153 | 3.2
O=C(NCC1CCCO1)c1cc2sccc2n1Cc1ccc(F)cc1 (stereo not given) | -0.821 | 2.5

# Carrying on:
Compound | LANA-nucl inh | Ab BasE inh
CCc1cccc(C)c1-n1c(C)cc(/C=C2\C(=O)NC(=S)N(c3ccccc3F)C2=O)c1C | . | -3.9
O=C(CCNc1nc(-c2ccccc2)nc2ccccc12)N1CCCC1 | . | -1.0
Cc1ccc(NC(=O)OCc2cccs2)cc1 | . | 2.6
COC(=O)CCn1nnc(-c2cccc(C)c2)n1 | -1.42 | -0.7
CCCn1c(N2CCN(CC(=O)Nc3ccc(Cl)cc3)CC2)nc2ccccc21 | -2.11 | -0.2
